# Screening results deposited in PubChem BioAssay by National Center for Advancing Translational Sciences (NCATS).
# D2 antag – antagonizes the human D2 dopamine receptor; P14416; inhibition, % at 10 µM; HEK293 TREx D2 cells, calcium flux, dopamine EC80; AID 485344; 340,000 tested, 2% active; in the data active means inhibition above about 30%; further: 0% is about no effect
#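 Inhibition of EC80 dopamine-driven calcium flux, recorded kinetically, defines activity here; cells are a tetracycline-induced HEK293 T-REx line expressing force-coupled D2.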
# TRHR enhancer – TRH receptor (human) allosteric enhancement. enhancement, % at 2 µM. TRHR cells, fluo-8 calcium fluorescence, EC20 TRH enhancement. AID 493056. 360,000 tested, 0.66% active. P34981; in the data active means enhancement above about 30%; further: 0% is about no effect
#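 TRHR-expressing cells loaded with fluo-8 calcium dye were read kinetically (ex 480/em 530) during compound addition, then stimulated with an EC20 of TRH (10 nM final). Enhancement of the Gq-mediated intracellular calcium response was scored.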
# D2 agonist – activates the human D2 dopamine receptor; 340,000 tested, 0.53% active; AID 485358; P14416; activation, % at 2 µM; HEK293 T-REx D2 cells, calcium flux agonist mode;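 active means activation over 3 SD above normal in the single-dose calcium agonist read, cut at about 30% in these data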; further: 0% is about no effect
#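 Agonism scored from kinetic calcium signal (1 read/sec, 180 s) following compound pin transfer, after a 10 s baseline. Cells: HEK293 Trex line expressing inducible D2 receptor coupled to calcium, dye-loaded after overnight culture at 30 C.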
# TrxR1 substrate – rat thioredoxin reductase 1 substrate activity; AID 588456; Potency, µM (titrated, usually from 114 µM), without a hit: at the top dose activity change, negative = substrate turnover; 390,000 tested, 0.01% active; purified TrxR1 substrate turnover, NADPH consumption readout; further: potency means the concentration at half of the fitted maximal effect; on the % scale 0 is the no-effect control and ±100 the full control effect; nearly all actives have a fitted effect of over 50% in size
# Target sequence (O89049 whole entry, looked up): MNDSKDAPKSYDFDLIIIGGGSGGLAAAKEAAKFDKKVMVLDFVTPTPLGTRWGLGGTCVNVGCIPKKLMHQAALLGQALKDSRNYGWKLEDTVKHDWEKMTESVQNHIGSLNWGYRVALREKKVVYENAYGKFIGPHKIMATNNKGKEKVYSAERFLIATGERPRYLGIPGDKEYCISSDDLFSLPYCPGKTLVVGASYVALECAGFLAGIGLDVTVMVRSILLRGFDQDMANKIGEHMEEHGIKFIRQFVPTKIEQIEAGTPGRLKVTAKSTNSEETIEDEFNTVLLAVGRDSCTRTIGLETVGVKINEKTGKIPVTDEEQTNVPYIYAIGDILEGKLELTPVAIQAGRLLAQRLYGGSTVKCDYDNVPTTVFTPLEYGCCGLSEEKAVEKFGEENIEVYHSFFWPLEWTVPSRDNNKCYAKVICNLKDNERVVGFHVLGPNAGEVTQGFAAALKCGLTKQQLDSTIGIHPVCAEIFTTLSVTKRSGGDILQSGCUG
#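 Rat TrxR1, dispensed at 90 nM, was prereduced with 400 uM NADPH (final) for 5 min at ~22 deg C, then incubated with compound 15 min before 400 uM selenite. A first-read NADPH fluorescence drop versus no-compound background flagged substrates.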
# rTrxR1 inhibitor – blocks rat thioredoxin reductase 1; O89049; recombinant rTrxR1, NADPH fluorescence consumption, selenite substrate; Potency, µM (series often up to 114 µM), inactives show top-dose activity change, negative = inhibition, usual class: inhibitors; 390,000 tested, 1% active; further: potency means the concentration at half of the fitted maximal effect; on the % scale 0 is the no-effect control and ±100 the full control effect; nearly all actives have a fitted effect of over 65% in size
#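 Rat TrxR1 (90 nM in the dispensed reagent) was pre-reduced with 400 uM NADPH for 5 min at room temperature, then incubated with compound for 15 min. After 400 uM selenite was added, NADPH fluorescence (Ex 340/Em 450 nm) was followed for 8 min.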
# mIDH1 inhibitor – inhibitors of human mutant IDH1 R132H. O75874. IDH1-R132H enzyme, NADPH consumption, diaphorase/resazurin fluorescence. Potency, µM (highest dose often 76.6 µM), without a hit: at the top dose activity change, negative = inhibition, hits mostly inhibitors. 390,000 tested, 0.093% active. AID 602179; further: potency means the concentration at half of the fitted maximal effect; on the % scale 0 is the no-effect control and ±100 the full control effect; nearly all actives have a fitted effect of over 65% in size
# Target sequence (O75874 whole entry R132H, stated change not applied): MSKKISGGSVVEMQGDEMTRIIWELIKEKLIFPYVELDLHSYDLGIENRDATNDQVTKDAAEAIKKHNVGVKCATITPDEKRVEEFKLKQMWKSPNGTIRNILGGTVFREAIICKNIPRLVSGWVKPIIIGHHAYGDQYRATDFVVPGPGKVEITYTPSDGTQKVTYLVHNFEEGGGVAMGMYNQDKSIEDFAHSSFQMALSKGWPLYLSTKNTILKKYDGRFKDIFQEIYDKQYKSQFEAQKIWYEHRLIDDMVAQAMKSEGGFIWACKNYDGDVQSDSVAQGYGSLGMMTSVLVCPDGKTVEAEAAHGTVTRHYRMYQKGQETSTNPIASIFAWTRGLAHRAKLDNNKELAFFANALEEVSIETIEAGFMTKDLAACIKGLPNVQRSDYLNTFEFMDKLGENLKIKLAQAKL
#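 IDH1-R132H (0.5 ug/mL) preincubated 30 min with compound, then NADPH (0.016 mM) and alpha-KG (2 mM) added; 80 min at RT, pH 7.5. Remaining NADPH coupled via diaphorase/resazurin to fluorescence (540/590 nm); concentration-response curves normalized to no-enzyme control.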
# Pin1 inh – human Pin1 inhibition. Q13526. Pin1 FP peptide displacement, HiFluor488, 10 min. Potency, µM (doses to about 115 µM), inactives show top-dose activity, negative = inhibition, hits mostly inhibitors. 390,000 tested, 0.009% active; active means well fitted inhibition curve with a large enough effect in the polarisation, with a control signal flat, not every such curve was filed as active; inconclusive means small, poorly fitted or top-dose-only effect, or effect the other way, or a change in a side signal; inactive means no such curve, though single readings can be large or run the other way; the % refers to the polarisation; further: potency means the concentration at half of the fitted maximal effect; on the % scale 0 is the no-effect control and ±100 the full control effect
# TRHR ag – agonists of human TRH receptor; AID 493084; 360,000 tested, 0.18% active; TRHR cells, calcium flux fluo-8, FDSS agonist mode; activation, % at 2 µM; P34981; in the data active means activation above about 30%; further: 0% is about no effect
#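 Steps: seed TRHR cells overnight; add fluo-8 no-wash Ca dye, RT 30 min–1.5 h; record 10 s baseline; pin-transfer compounds; monitor fluorescence 1 cycle/s for the agonist window. Calcium increases flag candidate agonists.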
# Starred values were filed as active, the others as inactive; u = inconclusive; x = no result given; [ ] = another dose, or the depositor's remark. Unless noted, the call rests on the fitted dose curve; in most records, active means well fitted inhibition curve with a large enough effect; inconclusive means small, poorly fitted or top-dose-only effect; inactive means no such curve, though single readings can be large or run the other way. This is a subset, so the mix of outcomes need not match the whole.
[1] Cc1cnc(NC(=O)c2ccco2)s1
[2] Cc1cc(C)c(OCC(O)CN2CCN(c3ccccn3)CC2)c(C)c1 (stereo unspecified)
[3] O=C(O)c1ccc2nc3c(nc2c1)-c1ccccc1C3=O
[4] Cc1cccc(C(=O)Nc2cc(-c3ccccc3F)nn2-c2ccccc2)c1
[5] O=c1c(NCCc2ccc(Cl)cc2)c(-c2ccccc2)c1=O
[6] CC(C)CCn1c(CN2CC(C)OC(C)C2)nc2c1c(=O)n(C)c(=O)n2C (stereo unspecified)
Compound,1,2,3,4,5,6
D2 antag,10,78*,34*,x,1,-26
TRHR enhancer,0,-6,-12,-4,-8,7
D2 agonist,0.7,79*,1.0,-0.3,0.3,2.0
TrxR1 substrate,-10%,4%,-5%[57.1 µM],-7%[57.1 µM],0%,10%[57.1 µM]
rTrxR1 inhibitor,-11%,11%,20%[57.1 µM],4%[57.1 µM],16%,20%[57.1 µM]
mIDH1 inhibitor,-3%,-1%,4%,-9%,1%,-5%
Pin1 inh,-10%,-2%,0%,-6%,2%,-2%
TRHR ag,-0.1,0.6,0.7,0.3,0.5,-0.5

[7] CCOCCCNC(=O)NC12CC3CC(CC(C3)C1)C2
[8] Cc1ccc(CNC(=O)Cn2cnc(S(=O)(=O)N3CCC(C)CC3)c2)o1
[9] CC(=O)Cc1nsc(NC(=O)c2ccc(-c3ccc(Cl)c(Cl)c3)o2)n1
[10] Cc1nc(-c2ccc(NS(C)(=O)=O)cc2)cs1
[11] O=C(NCc1ccco1)C1(S(=O)(=O)c2ccccc2)CC=CC1
[12] OC(COc1cccc2ccccc12)CN1CCN(c2ccccn2)CC1 (stereo unspecified)
Compound,7,8,9,10,11,12
D2 antag,15,19,-16,-15,-21,75*
TRHR enhancer,5,-8,4,-3,7,-3
D2 agonist,-0.1,0.0,4.0,-0.8,2.8,66*
TrxR1 substrate,10%,1%,8%,-4%,-4%,-5%
rTrxR1 inhibitor,21%,u,22%[0.0914 µM],-2%[57.1 µM],0%,-21%
mIDH1 inhibitor,1%,-10%,6%,-3%,0%,8%
Pin1 inh,-23%,0%,1%,3%,-1%,-1%
TRHR ag,0.5,-0.7,0.6,0.0,0.1,1.0

[13] CCN(CC)c1ccc2cc(-c3nnc(-c4ccncc4)o3)c(=O)oc2c1
[14] C/C(=N\NC(=O)c1ccc(NS(=O)(=O)c2cccs2)cc1)c1ccc(Cl)cc1
[15] COc1ccc(C(C#N)Nc2ccccc2C)cc1 (stereo unspecified)
[16] CCN1CCCC1CNC(=O)c1cc(S(=O)(=O)N(C)C)ccc1Cl (stereo unspecified)
[17] CCN1CCCC1CNS(=O)(=O)c1ccc(F)c(Cl)c1 (stereo unspecified)
[18] O=C(Cn1cnc2sc3c(c2c1=O)CCCC3)NCC(=O)Nc1c(F)cccc1F
Compound,13,14,15,16,17,18
D2 antag,66*,1,2,x,-22,-16
TRHR enhancer,12,0,5,2,1,12
D2 agonist,88*,-1.4,0.3,x,-1.0,-1.7
TrxR1 substrate,9%,-4%,-1%,3%,-8%,-8%
rTrxR1 inhibitor,4%,4%,-1%,11%,-15%,-10%
mIDH1 inhibitor,6%,4%,-6%,-1%,4%,14%
Pin1 inh,u,-4%,u,-1%,1%,5%
TRHR ag,285*,-0.7,0.6,-1.8,1.0,-0.4

[19] CC(=O)Oc1c(Br)cc(N(C(C)=O)S(=O)(=O)c2ccccc2)c2ccccc12
[20] O=C(/C=C/NNC(=O)c1cccc(Br)c1)c1ccccc1
[21] Cc1ccccc1NC(=O)c1ccc(NS(=O)(=O)c2cc(C(C)(C)C)cc(C)c2C)cc1
[22] O=C(Nc1ccncc1)c1ccccc1F
[23] COc1ccc(CNC(=O)C(CC(C)C)N2Cc3ccccc3C2=O)cc1 (stereo unspecified)
[24] C[C@@H](NC(=O)c1nc[nH]c1C(=O)NC1CCN(C(=O)OC(C)(C)C)CC1)c1ccccc1
Compound,19,20,21,22,23,24
D2 antag,33*,-1,5,0,x,-5
TRHR enhancer,-2,-13,0,-3,-5,0
D2 agonist,-3.5,1.5,0.7,-0.1,-2.3,0.5
TrxR1 substrate,u,1%,0%[57.1 µM],15%[57.1 µM],-4%,-2%
rTrxR1 inhibitor,-29%,-13%,17%[57.1 µM],-9%,-3%,13%
mIDH1 inhibitor,5%,5%,-18%,1%,5%,-4%
Pin1 inh,-6%,16%,3%,1%,u,2%
TRHR ag,-2.8,0.3,0.4,-0.2,-0.4,-0.2

[25] COCCn1nnnc1C(c1cc2cc(C)ccc2[nH]c1=O)N1CCc2ccccc21 (stereo unspecified)
[26] Cc1ccc(-c2csc(N(CC3CCCO3)C(=O)c3ccco3)n2)cc1 (stereo unspecified)
[27] CC1CC(C)CN(C(=O)COC(=O)c2ccc(S(=O)(=O)N(C)c3ccccc3)cc2)C1 (stereo unspecified)
[28] O=S(=O)(Cc1c(F)cccc1Cl)c1ncn[nH]1
[29] O=C(CCC(=O)N1CCOc2ccccc21)Nc1cc(F)ccc1F
[30] O=C(NC1CCCCCC1)C1CCN(C(=O)c2ccc(Br)cc2)CC1
Compound,25,26,27,28,29,30
D2 antag,-1,-2,x,4,-6,3
TRHR enhancer,-1,2,x,1,0,-1
D2 agonist,-0.3,-0.1,x,0.4,-0.7,1.1
TrxR1 substrate,12%[57.1 µM],-6%,-8%,-1%,0%[57.1 µM],-1%
rTrxR1 inhibitor,-32%[57.1 µM],-4%,11%,15%,7%[57.1 µM],16%
mIDH1 inhibitor,4%,0%,-7%,3%,18%,-10%
Pin1 inh,4%,u,u,-6%,1%,2%
TRHR ag,-0.3,1.4,x,0.3,-0.3,-0.3

[31] NC(=O)C(c1ccc(Sc2ccccc2)nn1)c1ccc(Cl)cc1Cl (stereo unspecified)
[32] NS(=O)(=O)c1ccc(NC(=O)c2ccc3c(c2)CCCC3)cc1
[33] O=C(Nc1ncccn1)c1cccc(Cl)c1
[34] C=CCn1c(CNC(=O)c2ccccc2F)nnc1SCc1nc2ccccc2c(=O)[nH]1
[35] Cc1ccc(NC2SC(=O)N(CC(=O)O)C2=O)cc1 (stereo unspecified)
[36] COc1ccccc1N1C(=O)C2C(C(=O)c3ccccc3)=NN(c3ccc(C)cc3)C2C1=O (stereo unspecified)
Compound,31,32,33,34,35,36
D2 antag,-4,13,x,x,-3,-8
TRHR enhancer,-5,5,x,-1,-2,-1
D2 agonist,-0.3,-1.5,x,x,0.6,14
TrxR1 substrate,-8%,-7%,3%,6%[57.1 µM],8%[57.1 µM],-2%
rTrxR1 inhibitor,2%,17%,16%,15%[57.1 µM],2%,19%
mIDH1 inhibitor,2%,6%,-3%,-1%,7%,-5%
Pin1 inh,-1%,u,0%,1%,4%,u
TRHR ag,-0.8,-1.8,x,-0.3,0.0,31*

# Gathered by group: the compounds so far with a COOH group (two)
[3] O=C(O)c1ccc2nc3c(nc2c1)-c1ccccc1C3=O
[35] Cc1ccc(NC2SC(=O)N(CC(=O)O)C2=O)cc1 (stereo unspecified)
Compound,3,35
D2 antag,34*,-3
TRHR enhancer,-12,-2
D2 agonist,1.0,0.6
TrxR1 substrate,-5%[57.1 µM],8%[57.1 µM]
rTrxR1 inhibitor,20%[57.1 µM],2%
mIDH1 inhibitor,4%,7%
Pin1 inh,0%,4%
TRHR ag,0.7,0.0

# Compounds above with a tert-butyl group (2):
[21] Cc1ccccc1NC(=O)c1ccc(NS(=O)(=O)c2cc(C(C)(C)C)cc(C)c2C)cc1
[24] C[C@@H](NC(=O)c1nc[nH]c1C(=O)NC1CCN(C(=O)OC(C)(C)C)CC1)c1ccccc1
Compound,21,24
D2 antag,5,-5
TRHR enhancer,0,0
D2 agonist,0.7,0.5
TrxR1 substrate,0%[57.1 µM],-2%
rTrxR1 inhibitor,17%[57.1 µM],13%
mIDH1 inhibitor,-18%,-4%
Pin1 inh,3%,2%
TRHR ag,0.4,-0.2

# Shown with bars between the fields: two of the compounds above.
cpd | molecule | D2 antag | TRHR enhancer | D2 agonist | TrxR1 substrate | rTrxR1 inhibitor | mIDH1 inhibitor | Pin1 inh | TRHR ag
33 | O=C(Nc1ncccn1)c1cccc(Cl)c1 | x | x | x | 3% | 16% | -3% | 0% | x
34 | C=CCn1c(CNC(=O)c2ccccc2F)nnc1SCc1nc2ccccc2c(=O)[nH]1 | x | -1 | x | 6%[57.1 µM] | 15%[57.1 µM] | -1% | 1% | -0.3

# Following part:
[37] CCc1ccccc1N(CC)C(=O)c1c(C)oc2ncnc(N3CCOCC3)c12
[38] O=c1cc(O)nc(SCc2ccccc2Cl)[nH]1
[39] CCOc1ccc(C2C(C(=O)Nc3ccccc3C)=C(C)Nc3nnnn32)cc1 (stereo unspecified)
[40] Cc1nc(-c2ccc(NC(=O)c3cccs3)cc2)cs1
[41] Oc1ccc2ccccc2c1C=NC12CN3CCN(CN(C3)C1)C2
Compound,37,38,39,40,41
D2 antag,x,x,x,7,x
TRHR enhancer,-9,x,-6,-2,x
D2 agonist,-0.6,x,-0.5,0.1,x
TrxR1 substrate,0%,-1%[57.1 µM],3%,27%,u
rTrxR1 inhibitor,10%,14%[57.1 µM],24%,-1%,-19%
mIDH1 inhibitor,-5%,1%,-1%,13%,22%
Pin1 inh,2%,0%,26%,5%,-3%
TRHR ag,0.2,x,-0.7,0.4,x
